RanGTP-Impb inh = inhibitors of RanGTP-importin-beta interaction, primary screen, biochemical, FRET, CFP-Ran, YFP-importin-beta, homogeneous. Ran GTPase (GTP-bound) - importin-beta complex. cell-free CFP-Ran/YFP-importin-beta FRET ratio. inhibition, % (no concentration beside the values). 300,000 compounds, 1.1% hits. AID 2216, 2009;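 active = most replicates above 15%; inconclusive = exactly half above 15%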;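 also: 0% = DMSO wells and 100% = Ran loaded with GDP instead of GTP; wells of about 40 µL received 100 nL stock; the first replicate is given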
Ecoli rRNA inh = reduced GFP signal of wild-type E. coli, primary screen, bacterial rRNA inhibitor project, GFP/RFP fluorescence, OD600, single point | E. coli WT GFP vs humanized-ribosome RFP mutants, 24 h; hits give low values; DMSO median 0, no signal -100 | GFP signal change (wild-type ribosome), % (concentration not given with the values) | 350,000 compounds, 1.6% hits;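 active = significant combined selectivity score with lowered wild-type GFP, culture density cut under 30%, mutant RFP and density less affected; inactive = any of these conditions unmet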; also: one replicate is shown; some compounds called inactive have numbers as strong as hits
Calb FLC = C. albicans growth inhibition with fluconazole, primary screen, CaCi-2 strain, Alamar Blue fluorescence; C. albicans CaCi-2 (fluconazole-resistant clinical isolate) + fluconazole, 48 h; growth inhibition, % (no concentration beside the values); 300,000 compounds, 0.57% hits; AID 1979, 2009;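 active = most replicates above 75%; inconclusive = exactly half above 75%; inactive = most below 75%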;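 also: all wells also contain fluconazole at 8 µg/ml as a sub-toxic cotreatment; 0% = median of DMSO wells and 100% = median of geldanamycin control wells; wells of about 8 µL received 7.5 nL stock; the first replicate is given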
MLL AF4-AF9 inh = inhibitors of AF4 peptide binding to AF9, primary screen, biochemical, AlphaScreen, biotin-AF4 peptide, FLAG-AF9, single point; inhibition, % at 10 µM; 350,000 compounds, 0.47% hits; AID 651704, 2012;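 active = every replicate reaching a set inhibition limit, whatever the replicate mean, cut at about 25% in these data; inconclusive = mean inhibition reaches that limit but some replicates miss it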;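 also: 0% = plate neutral control median and 100% = total signal loss; the record names both 10 and 1 µM as test concentration; the first replicate is given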
Target sequence (P42568 whole entry, looked up): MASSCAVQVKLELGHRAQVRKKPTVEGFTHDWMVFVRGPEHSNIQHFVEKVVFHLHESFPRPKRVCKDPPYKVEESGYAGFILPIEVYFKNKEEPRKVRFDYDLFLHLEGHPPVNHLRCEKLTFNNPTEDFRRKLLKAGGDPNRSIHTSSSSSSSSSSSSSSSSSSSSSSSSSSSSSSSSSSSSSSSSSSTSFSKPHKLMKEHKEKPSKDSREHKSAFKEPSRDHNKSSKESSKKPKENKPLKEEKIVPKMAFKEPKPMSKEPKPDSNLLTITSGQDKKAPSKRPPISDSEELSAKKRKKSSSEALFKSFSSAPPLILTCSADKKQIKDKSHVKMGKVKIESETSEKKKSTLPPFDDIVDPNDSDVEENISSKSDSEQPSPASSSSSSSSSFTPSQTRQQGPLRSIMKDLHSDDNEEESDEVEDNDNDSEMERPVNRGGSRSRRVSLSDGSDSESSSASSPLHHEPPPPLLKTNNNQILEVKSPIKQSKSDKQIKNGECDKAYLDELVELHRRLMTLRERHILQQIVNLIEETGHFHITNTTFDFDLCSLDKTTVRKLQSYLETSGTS
ALR inh = inhibitors of human ALR sulfhydryl oxidase, primary screen, biochemical, H2O2 detection, HRP-luminol luminescence, single point. FAD-linked sulfhydryl oxidase ALR (Homo sapiens), P55789. purified ALR, DTT oxidation. inhibition, % (concentration not given with the values). 290,000 compounds, 3.8% hits;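 active = mean and each replicate at 75% or more; inconclusive = only one of the two met; inactive = neither met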;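 also: stock transfer was 7.5 nL into about 7.5 µL; 0% = neutral wells and 100% = wells with inactivated enzyme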
Target sequence (P55789 whole entry, looked up): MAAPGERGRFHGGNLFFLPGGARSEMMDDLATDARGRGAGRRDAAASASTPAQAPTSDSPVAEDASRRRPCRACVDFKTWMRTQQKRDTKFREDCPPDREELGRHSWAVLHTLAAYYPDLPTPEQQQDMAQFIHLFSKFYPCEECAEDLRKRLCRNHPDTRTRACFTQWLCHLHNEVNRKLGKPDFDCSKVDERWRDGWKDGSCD
Beta cell apopt = inhibitors of cytokine-induced beta cell apoptosis, primary screen, luminescence; INS-1E cytokine-induced death, ATP luminescence, 48 h; percent of positive-control rescue, neutral wells zero; protection from apoptosis, % (test concentration not listed); 300,000 compounds, 0.8% hits; AID 435005, 2010;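 active = all replicates at 75% or more, or half of them and the mean; inconclusive = half reach 75% but not the mean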;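 also: 0% = cytokine-treated negative control wells and 100% = positive control rescue; higher means more ATP so stronger rescue from cytokine killing; wells of about 40 µL received 100 nL stock; the first replicate is given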
T cruzi inh = inhibitors of intracellular T. cruzi growth, primary screen, luminescence, NIH3T3 host cells | T. cruzi beta-gal in NIH3T3, 90 h | inhibition, % (test concentration not listed) | 300,000 compounds, 1.4% hits | AID 1885, 2009;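 active = mean inhibition across valid replicates above about 55%, limit read from the data; inconclusive = mean below that limit but half or more replicates reach it; inactive = mean below it, under half of replicates reach it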;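 also: signal also drops with host cell toxicity which is not excluded here; 0% = plate median of DMSO wells and 100% = zero luminescence signal; higher percent means less beta-gal luminescence so fewer parasites; stock transfer was 50 nL into about 50 µL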
FGF22 binding = binders of human FGF22 protein, primary screen, FGF22 synaptogenesis inhibitor project, biophysical, thermal shift, single point; Fibroblast growth factor 22 (Homo sapiens), Q9HCT0; recombinant FGF22 thermal shift, SYPRO orange fluorescence; percent of sucrose octasulfate shift, DMSO zero; calls only at 9.99 µM; 340,000 compounds, 1.5% hits; AID 651658, 2012;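 active = melting point raised past a set limit in the mean and every replicate; inconclusive = no clear call; three in four hits are not shown here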
Target sequence (Q9HCT0 whole entry, looked up): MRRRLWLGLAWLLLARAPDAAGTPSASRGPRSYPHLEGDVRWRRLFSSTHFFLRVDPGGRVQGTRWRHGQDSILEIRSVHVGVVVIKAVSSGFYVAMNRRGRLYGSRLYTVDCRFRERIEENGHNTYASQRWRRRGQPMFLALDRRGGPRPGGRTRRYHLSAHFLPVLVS
Ecoli rRNA inh OD600 = second read-out of Ecoli rRNA inh, no call of its own (marks repeat the call); OD600 change, %; measured here: OD600 growth;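 optical density of the mix in the first replicate; 0 = DMSO median and -100 = no signal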
Ecoli rRNA inh RFP = further read-out of Ecoli rRNA inh, marked with its call; RFP signal change, %; measured here: RFP humanized mutant strains;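 first replicate; 0 = DMSO median and -100 = no signal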
Starred values were filed as active, the others as inactive; i = inactive; u = inconclusive; x = not tested or not shown. This is a subset; count on the stated rates, not on these rows.

Start of the data: the first 11 entries (preview)
nr	Structure	RanGTP-Impb inh	Ecoli rRNA inh	Ecoli rRNA inh OD600	Ecoli rRNA inh RFP	Calb FLC	MLL AF4-AF9 inh	ALR inh	Beta cell apopt	T cruzi inh	FGF22 binding
1	O=c1[nH]c2ccc(NS(=O)(=O)c3ccc([N+](=O)[O-])cc3)cc2[nH]1	1.1	2	7	-0.2	-1	-1.9	-3	-3	-3	i
2	CNC(C)c1ccc(S(N)(=O)=O)cc1 (stereo not drawn)	-0.1	10	18	1.0	-1	0.1	-7	-8	5	i
3	CCOC(=O)COC(=O)c1ccc(O)cc1	-2.1	x	x	x	-17	x	-5	-1	-9	x
4	Cc1cc(C)nc(N/N=C/c2cc(C)n(CC(F)(F)F)c2C)n1	1.8	x	x	x	27	2.7	46	19	-12	x
5	Cc1nc(Nc2ccc3c(c2)OCCO3)c2oc3ccccc3c2n1	-0.6	x	x	x	44	x	x	5	-2	x
6	CC(NCC(=O)Nc1cc(S(=O)(=O)N2CCOCC2)ccc1N1CCOCC1)c1ccco1 (stereo not drawn)	x	3	6	-1.4	x	3.3	8	0	x	i
7	COC(=O)CSc1nnc2n(C3CCCCC3)c(=O)c3c4c(sc3n12)CCCC4	u	x	x	x	7	x	-1	4	23	x
8	O=C(Nc1ccc(C(=O)NN2C(=O)c3ccccc3C2=O)cc1)c1ccccc1	-1.7	17	5	-1.8	8	-2.3	-11	-4	-6	i
9	C=CCNC(=S)NNc1nc2c(c(=O)[nH]1)C1(CCCC1)Cc1ccccc1-2	-0.7	-11	-11	-0.5	u	-9.6	51	-27	4	i
10	CCn1c(COc2ccccc2Cl)nnc1SCC(=O)Nc1ncccc1C	-1.6	x	x	x	5	x	12	-11	-6	x
11	Cc1ccc(NCc2n[nH]c(=S)n2Cc2ccccc2)cc1Cl	2.3	-44	-49	-3.5	19	-0.5	x	x	-6	i

The list itself, previewed entries included:
nr	Structure	RanGTP-Impb inh	Ecoli rRNA inh	Ecoli rRNA inh OD600	Ecoli rRNA inh RFP	Calb FLC	MLL AF4-AF9 inh	ALR inh	Beta cell apopt	T cruzi inh	FGF22 binding
1	O=c1[nH]c2ccc(NS(=O)(=O)c3ccc([N+](=O)[O-])cc3)cc2[nH]1	1.1	2	7	-0.2	-1	-1.9	-3	-3	-3	i
2	CNC(C)c1ccc(S(N)(=O)=O)cc1 (stereo not drawn)	-0.1	10	18	1.0	-1	0.1	-7	-8	5	i
3	CCOC(=O)COC(=O)c1ccc(O)cc1	-2.1	x	x	x	-17	x	-5	-1	-9	x
4	Cc1cc(C)nc(N/N=C/c2cc(C)n(CC(F)(F)F)c2C)n1	1.8	x	x	x	27	2.7	46	19	-12	x
5	Cc1nc(Nc2ccc3c(c2)OCCO3)c2oc3ccccc3c2n1	-0.6	x	x	x	44	x	x	5	-2	x
6	CC(NCC(=O)Nc1cc(S(=O)(=O)N2CCOCC2)ccc1N1CCOCC1)c1ccco1 (stereo not drawn)	x	3	6	-1.4	x	3.3	8	0	x	i
7	COC(=O)CSc1nnc2n(C3CCCCC3)c(=O)c3c4c(sc3n12)CCCC4	u	x	x	x	7	x	-1	4	23	x
8	O=C(Nc1ccc(C(=O)NN2C(=O)c3ccccc3C2=O)cc1)c1ccccc1	-1.7	17	5	-1.8	8	-2.3	-11	-4	-6	i
9	C=CCNC(=S)NNc1nc2c(c(=O)[nH]1)C1(CCCC1)Cc1ccccc1-2	-0.7	-11	-11	-0.5	u	-9.6	51	-27	4	i
10	CCn1c(COc2ccccc2Cl)nnc1SCC(=O)Nc1ncccc1C	-1.6	x	x	x	5	x	12	-11	-6	x
11	Cc1ccc(NCc2n[nH]c(=S)n2Cc2ccccc2)cc1Cl	2.3	-44	-49	-3.5	19	-0.5	x	x	-6	i
12	CCCC(=O)Nc1nnc(SCC(=O)Nc2ccc3c(c2)OCO3)s1	-5.5	19	10	-3.9	2	-12	-2	7	-11	i
13	COc1ccc(OCC(O)CN2CCC(CN3C(=O)c4cccc5cccc(c45)C3=O)CC2)cc1 (stereo not drawn)	-4.4	-6	-6	14	-6	7.6	-7	12	33	i
14	COc1ccc(C(=O)NC(=S)Nc2ccc(S(N)(=O)=O)cc2)cc1	3.3	8	7	-1.5	17	-0.9	2	-9	1	i
15	Cn1nc([N+](=O)[O-])nc1N1CCN(c2ccc(F)cc2)CC1	-1.3	x	x	x	-6	x	-1	1	54	x
16	COc1ccc(OC)c(NC(=O)CN2CCC(NC(=O)c3ccccc3C)CC2)c1	-1.2	-1	1	-1.2	-13	-3.2	-33	6	2	i
17	CCCCN(C)C1CCN(C(=S)Nc2ccc(OCC)cc2)CC1	-1.5	7	4	-0.9	-4	-12	-4	4	34	i
18	CCCOC(=O)C1=C(C)OC23OC(N)=C(C#N)C12C(=O)c1ccccc13 (stereo not drawn)	3.5	x	x	x	-7	x	2	-5	0	x
19	COC(=O)c1c(C)oc(C)c1S(=O)(=O)NCc1ccco1	3.9	11	8	0.4	4	-1.5	-1	-1	-22	i
20	CC(C)C(Nc1ccc(C(F)(F)F)cc1[N+](=O)[O-])C(=O)O (stereo not drawn)	1.2	6	13	15	-2	0.3	3	-2	-12	i
21	CCCC(=O)N(Cc1cc(=O)[nH]c2ccccc12)c1cccc(C)c1	-4.2	-5	-12	0.1	1	0.2	-5	4	22	i
22	N#Cc1ccc(-c2ccc(OCC(O)CN3CCCCC3)cc2)cc1 (stereo not drawn)	-0.9	13	11	3.6	-8	2.9	-18	-1	62*	i
23	CCCCNC(=O)Cn1c(=O)c2c(ncn2CCC(C)C)n(Cc2ccccc2)c1=O	-1.6	4	13	-1.2	-2	-0.5	-6	x	10	i
24	O=C(NC1CCCC1)C(c1ccncc1)N(Cc1ccccc1)C(=O)c1ccc(-c2ccccc2)[nH]1 (stereo not drawn)	5.6	x	x	x	3	x	0	x	61*	x
25	O=C(/C=C/c1ccccc1)N1CCOCC1	-2.4	7	3	-1.5	3	-0.7	3	-2	-14	i
26	Cc1ccc(NC(=O)CSc2nnc(-c3cccnc3)o2)c(C)c1	5.4	7	14	-4.6	-6	0.1	x	x	0	i
27	Cc1cc(OCC(=O)NNC(=S)NC(=O)c2cccs2)ccc1Cl	x	-7	-14	-2.2	104*	-0.9	58	4	x	i
28	CCOc1ccc(Nc2nc(NCCN3CCOCC3)nc(OC)n2)cc1	0.4	x	x	x	-5	x	-5	1	8	x
29	COc1cc(O)oc1C=Nc1ccc(Cl)cc1	2.3	x	x	x	-3	x	-10	-6	-1	x
30	O=C1N2CCSC2=NC1(NS(=O)(=O)c1ccccc1)C(F)(F)F (stereo not drawn)	0.3	x	x	x	-4	x	-6	0	-6	x
31	COc1ccc(-c2cc(N3C(=O)Nc4ccccc4N3O)n[nH]2)cc1	9.3	x	x	x	-5	x	-2	-3	17	x
32	Cc1ccc(NC(=O)CSc2nc3ccccc3c3nc4ccccc4n23)cc1	2.9	x	x	x	2	x	4	41	-91	x
33	CSc1ccc(/C=N/n2c(COc3ccccc3)n[nH]c2=S)cc1	-0.3	-14	-16	-7.2	-8	-1.3	-5	-1	0	i
34	COc1ccc(/C=N/NC(=O)c2cccnc2)cc1CN1CCCc2ccccc21	2.9	-28*	-11*	1.3*	3	22	63	2	12	i
35	O=C(c1cnn2c(C(F)F)cc(-c3ccccc3)nc12)N1CCOCC1	0.9	x	x	x	-1	x	-5	-4	-4	x
36	O=c1nc(-c2ccccc2)c2ccccc2[nH]1	-3.8	x	x	x	0	x	-3	9	-4	x
37	CCOC(=O)N1CCC(Nc2c(NCCCN3CCN(C4CCCCC4)CC3)c(=O)c2=O)CC1	u	10	13	-1.3	-14	1.8	-10	-8	-13	i
38	COc1cc(/C=N/n2nnnc2N)ccc1OCc1c(C)no[n+]1[O-]	-4.6	x	x	x	-1	x	-14	-19	-6	x
39	COc1cc(NC(=O)c2cccc(Cl)c2)c(OC)cc1NC(=O)CN1CCCCC1	-2.1	6	11	0.9	33	21	-17	x	40	i
40	COc1cccc(CN2CCN(CCCc3ccccc3)C(CCO)C2)c1O (stereo not drawn)	1.5	1	4	3.0	-4	1.6	30	x	1	i

A draw from above in order of number of heavy atoms, highest first.
nr	Structure	RanGTP-Impb inh	Ecoli rRNA inh	Ecoli rRNA inh OD600	Ecoli rRNA inh RFP	Calb FLC	MLL AF4-AF9 inh	ALR inh	Beta cell apopt	T cruzi inh	FGF22 binding
34	COc1ccc(/C=N/NC(=O)c2cccnc2)cc1CN1CCCc2ccccc21	2.9	-28*	-11*	1.3*	3	22	63	2	12	i
40	COc1cccc(CN2CCN(CCCc3ccccc3)C(CCO)C2)c1O (stereo not drawn)	1.5	1	4	3.0	-4	1.6	30	x	1	i
33	CSc1ccc(/C=N/n2c(COc3ccccc3)n[nH]c2=S)cc1	-0.3	-14	-16	-7.2	-8	-1.3	-5	-1	0	i

(list continues)
nr	Structure	RanGTP-Impb inh	Ecoli rRNA inh	Ecoli rRNA inh OD600	Ecoli rRNA inh RFP	Calb FLC	MLL AF4-AF9 inh	ALR inh	Beta cell apopt	T cruzi inh	FGF22 binding
41	CC1CN(S(=O)(=O)c2ccc(Cl)c(S(=O)(=O)N3CC(C)OC(C)C3)c2)CC(C)O1 (stereo not drawn)	3.2	x	x	x	-2	x	-11	-3	19	x
42	CS(=O)(=O)Nc1ccccc1C(=O)OCC(=O)NCc1cccs1	x	2	0	-1.9	x	-0.9	-1	-1	x	i
43	Cn1ccnc1SCc1cn2ccccc2n1	2.5	x	x	x	3	x	94*	2	-16	x
44	Cc1ccccc1Nc1c(-c2ccccc2)nc2ncccn12	-0.8	-2	-2	-5.8	2	-1.9	-5	-15	2	i
45	O=C(COC(=O)Cc1c(F)cccc1Cl)NC(=O)c1ccccc1	1.1	15	14	2.6	-4	-0.9	-1	-2	-13	i
46	C/C(=N\NC(=O)CC1N=C(Cc2ccccc2)NNC1=O)c1ccc(C)cc1 (stereo not drawn)	3.8	x	x	x	1	x	2	3	-6	x
47	COC(=O)c1sccc1NC(=O)Nc1ccc(OC)cc1	2.2	5	7	0.1	7	-0.2	0	0	-13	i
48	CC(=O)C1=C(C)NC(=O)CC1c1ccc(F)cc1 (stereo not drawn)	-1.0	12	15	0.5	-6	-0.2	-28	-4	-3	i
49	COc1cc(CCC(=O)NCc2ccc(F)cc2)cc(OC)c1OC	-1.6	12	11	-0.6	-6	-5.2	-23	11	5	i
50	Cc1ccc(CN2CC34C=CC(O3)C(C(=O)NCc3ccco3)C4C2=O)cc1 (stereo not drawn)	-0.3	x	x	x	-10	x	39	-8	-8	x

Bioassay records as filed in PubChem.
